Bioassay records deposited in PubChem by Broad Institute.
AF4-AF9 inh: blocks AF4 peptide binding to human AF9; hit rate 0.47% among 350,000; inhibition, % at 10 µM; AlphaScreen, biotin-AF4 peptide binding to FLAG-AF9; P42568;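 active means every replicate reaching a set inhibition limit, whatever the replicate mean, cut at about 25% in these data; inconclusive means mean inhibition reaches that limit but some replicates miss it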;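 further: 0% = plate neutral control median and 100% = total signal loss; the record names both 10 and 1 µM as test concentration; the first replicate is given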
Target sequence (P42568 whole entry, looked up): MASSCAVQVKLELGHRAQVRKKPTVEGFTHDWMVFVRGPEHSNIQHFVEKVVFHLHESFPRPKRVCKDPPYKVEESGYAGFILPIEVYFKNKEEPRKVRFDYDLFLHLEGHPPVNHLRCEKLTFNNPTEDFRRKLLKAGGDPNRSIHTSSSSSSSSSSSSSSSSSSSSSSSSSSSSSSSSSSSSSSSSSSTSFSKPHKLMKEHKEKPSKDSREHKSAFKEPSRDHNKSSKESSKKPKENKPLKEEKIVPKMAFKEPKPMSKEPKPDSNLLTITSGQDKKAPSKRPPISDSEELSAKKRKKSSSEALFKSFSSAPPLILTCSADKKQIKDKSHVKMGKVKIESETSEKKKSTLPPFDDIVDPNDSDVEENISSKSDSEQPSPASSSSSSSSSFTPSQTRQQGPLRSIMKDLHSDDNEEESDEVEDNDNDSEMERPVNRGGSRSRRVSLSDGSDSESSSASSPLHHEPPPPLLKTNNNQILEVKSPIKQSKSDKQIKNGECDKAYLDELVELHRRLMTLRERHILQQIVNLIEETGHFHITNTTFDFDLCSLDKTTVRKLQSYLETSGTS
rRNA inh HTS: inhibitors of bacterial rRNA selective over humanized ribosomes; E. coli WT GFP vs humanized-ribosome RFP mutants, fluorescence, 24 h; stronger effect = lower value; DMSO median 0, no signal -100; hit rate 1.6% among 350,000; GFP signal change (wild-type ribosome), % (no concentration beside the values);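 active means significant combined selectivity score with lowered wild-type GFP, culture density cut under 30%, mutant RFP and density less affected; inactive means any of these conditions unmet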; further: one replicate is shown; some compounds called inactive have numbers as strong as hits
Calb FLC: C. albicans growth modulation with fluconazole | C. albicans CaCi-2 (fluconazole-resistant clinical isolate) + fluconazole, Alamar Blue growth, 48 h | growth inhibition, % (concentration not given with the values) | hit rate 0.57% among 300,000;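 active means most replicates above 75%; inconclusive means exactly half above 75%; inactive means most below 75%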;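 further: all wells also contain fluconazole at 8 µg/ml as a sub-toxic cotreatment; 0% = median of DMSO wells and 100% = median of geldanamycin control wells; wells of about 8 µL received 7.5 nL stock; the first replicate is given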
Beta apoptosis: beta cell apoptosis inhibition | INS-1E cytokine-induced death, ATP luminescence, 48 h; percent of positive-control rescue, neutral wells zero | protection from apoptosis, % (no concentration beside the values) | hit rate 0.8% among 300,000 | AID 435005;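 active means all replicates at 75% or more, or half of them and the mean; inconclusive means half reach 75% but not the mean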;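 further: 0% = cytokine-treated negative control wells and 100% = positive control rescue; higher means more ATP so stronger rescue from cytokine killing; wells of about 40 µL received 100 nL stock; the first replicate is given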
ALR H2O2 inh: inhibitors of human sulfhydryl oxidase ALR; inhibition, % (concentration not given with the values); purified ALR, DTT oxidation, H2O2 HRP-luminol luminescence; hit rate 3.8% among 290,000; P55789;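 active means mean and each replicate at 75% or more; inconclusive means only one of the two met; inactive means neither met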;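 further: stock transfer was 7.5 nL into about 7.5 µL; 0% = neutral wells and 100% = wells with inactivated enzyme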
Target sequence (P55789 whole entry, looked up): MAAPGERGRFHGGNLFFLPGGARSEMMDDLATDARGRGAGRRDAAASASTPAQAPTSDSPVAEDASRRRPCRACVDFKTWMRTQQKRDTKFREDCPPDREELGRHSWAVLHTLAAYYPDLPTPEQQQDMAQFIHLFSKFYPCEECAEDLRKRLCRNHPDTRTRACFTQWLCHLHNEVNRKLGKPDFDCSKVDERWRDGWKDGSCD
RanGTP-Imp inh: inhibitors of RanGTP-importin-beta interaction, primary screen, biochemical, FRET, CFP-Ran, YFP-importin-beta, homogeneous; AID 2216; inhibition, % (concentration not given with the values); hit rate 1.1% among 300,000; cell-free CFP-Ran/YFP-importin-beta FRET ratio;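 active means most replicates above 15%; inconclusive means exactly half above 15%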;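 further: 0% = DMSO wells and 100% = Ran loaded with GDP instead of GTP; wells of about 40 µL received 100 nL stock; the first replicate is given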
FGF22 binding: shifts melting point of recombinant human FGF22 | Q9HCT0 | recombinant FGF22 thermal shift, SYPRO orange fluorescence; percent of sucrose octasulfate shift, DMSO zero | calls only at 9.99 µM | hit rate 1.5% among 340,000;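 active means melting point raised past a set limit in the mean and every replicate; inconclusive means no clear call; three in four hits are not shown here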
Target sequence (Q9HCT0 whole entry, looked up): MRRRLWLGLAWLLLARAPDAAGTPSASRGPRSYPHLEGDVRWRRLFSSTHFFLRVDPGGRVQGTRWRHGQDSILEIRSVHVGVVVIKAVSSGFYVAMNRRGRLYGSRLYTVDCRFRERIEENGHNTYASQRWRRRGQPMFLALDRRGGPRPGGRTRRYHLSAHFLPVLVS
T cruzi inh: blocks replication of Trypanosoma cruzi; hit rate 1.4% among 300,000; inhibition, % (concentration not given with the values); AID 1885; T. cruzi beta-gal in NIH3T3, luminescence, 90 h;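 active means mean inhibition across valid replicates above about 55%, limit read from the data; inconclusive means mean below that limit but half or more replicates reach it; inactive means mean below it, under half of replicates reach it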;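 further: signal also drops with host cell toxicity which is not excluded here; 0% = plate median of DMSO wells and 100% = zero luminescence signal; higher percent means less beta-gal luminescence so fewer parasites; stock transfer was 50 nL into about 50 µL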
rRNA inh HTS OD600: second read-out of rRNA inh HTS, no call of its own (marks repeat the call); OD600 change, %; measured here: OD600 growth;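 optical density of the mix in the first replicate; 0 = DMSO median and -100 = no signal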
rRNA inh HTS RFP: also measured in rRNA inh HTS; calls as there; RFP signal change, %; measured here: RFP humanized mutant strains;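 first replicate; 0 = DMSO median and -100 = no signal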
* hit, by the source's call; i = inactive; ? = inconclusive; . = no result given; & = joins results of further samples.

SMILES	AF4-AF9 inh	rRNA inh HTS	rRNA inh HTS OD600	rRNA inh HTS RFP	Calb FLC	Beta apoptosis	ALR H2O2 inh	RanGTP-Imp inh	FGF22 binding	T cruzi inh
COc1ccc(CCNC(=S)NCCc2ccc(OC)c(OC)c2)cc1OC	0.6&4.5	0.2&-8.1	-9.5&-3.5	2.3&-4.3	4.0	1.4	2.1	3.0	i	-0.4
Fc1ccc(CNc2ncnc3c2cnn3-c2ccccc2)cc1	.	.	.	.	15.4	5.6	-2.1	4.8	.	8.1
Cc1ccc(C2=CN(Cc3ccccc3)CCC2=O)cc1	.	-9.4	-9.1	0.0	.	2.9	21.9	.	i	.
CN(Cc1ccon1)Cc1cn(C)nc1-c1cccc(Cl)c1	-0.1	-4.3	-5.4	0.5	-13.6	-2.9	.	-1.1	i	-3.8
CCCCCC(=O)Nc1ccc2oc(-c3cccnc3)nc2c1	.	.	.	.	3.8	-4.0	-9.3	7.4	.	-13.8
C=CCN(C(=O)c1ccccn1)C(C(=O)NCc1ccccc1)c1ccccc1F (centres undefined)	-0.6	3.3	-3.4	-0.4	-5.4	-11.8	.	-2.2	i	7.9
CCc1ccc(N(C2C=CS(=O)(=O)C2)S(=O)(=O)c2ccccc2)cc1 (centres undefined)	.	.	.	.	16.2	-6.2	6.8	1.8	.	-4.8
CCOc1cc(C(=O)NC2CC(C)(C)NC(C)(C)C2)cc(OCC)c1OCC	-8.2	20.1	15.0	0.0	4.5	-3.4	-4.1	6.3	i	-16.7
Cn1nc([N+](=O)[O-])nc1Sc1ccc(Cl)cc1	.	.	.	.	2.9	.	-14.1	-1.7	.	68.6*
O=C(NNC(=O)c1ccc(Cl)cc1Cl)Nc1ccccc1	.	.	.	.	4.0	-7.0	1.9	-0.5	.	-4.1
CCOC(=O)[C@H]1[C@H]2COc3ccc(C)cc3[C@@H]2N2C(=O)CN(CC3CCCO3)C(=O)[C@@]12C (some centres undefined)	0.6	8.8	2.9	1.9	.	4.5	4.3	.	i	.
COc1ccc(-c2cc3c(=O)n(CC(=O)NCc4ccccc4OC)ncn3n2)cc1	-1.5	-2.3	14.9	-2.0	-9.8	0.5	-0.4	0.4	i	-6.6
CCC1CCCCN1CCCNC(=O)c1ccc(CS(=O)(=O)Cc2ccccc2F)o1 (centres undefined)	.	.	.	.	-2.5	0.2	-9.7	5.9	.	-18.1
Cc1ccc(Cn2ccc(=O)c(OCc3c(Cl)cccc3Cl)c2C)cc1	.	.	.	.	-3.1	26.0	9.1	2.1	.	16.4
Cc1ccc(C)c(Nc2nc3nonc3nc2N2CCOCC2)c1	-3.5	7.7	18.9	0.2	-8.4	.	-3.3	-4.9	i	3.0

The final 4 entries of the section before open the next one:
SMILES	AF4-AF9 inh	rRNA inh HTS	rRNA inh HTS OD600	rRNA inh HTS RFP	Calb FLC	Beta apoptosis	ALR H2O2 inh	RanGTP-Imp inh	FGF22 binding	T cruzi inh
COc1ccc(-c2cc3c(=O)n(CC(=O)NCc4ccccc4OC)ncn3n2)cc1	-1.5	-2.3	14.9	-2.0	-9.8	0.5	-0.4	0.4	i	-6.6
CCC1CCCCN1CCCNC(=O)c1ccc(CS(=O)(=O)Cc2ccccc2F)o1 (centres undefined)	.	.	.	.	-2.5	0.2	-9.7	5.9	.	-18.1
Cc1ccc(Cn2ccc(=O)c(OCc3c(Cl)cccc3Cl)c2C)cc1	.	.	.	.	-3.1	26.0	9.1	2.1	.	16.4
Cc1ccc(C)c(Nc2nc3nonc3nc2N2CCOCC2)c1	-3.5	7.7	18.9	0.2	-8.4	.	-3.3	-4.9	i	3.0
O=C(CN1CCN(C/C=C/c2ccccc2)CC1)NC(=O)NC1CCCCC1	5.1	1.4	3.1	-0.8	-5.8	2.7	3.4	28.7*	i	?
COc1ccccc1OCCCC(=O)NC(C)c1ccccc1 (centres undefined)	-2.0	3.3	-4.5	1.9	-14.8	0.5	-13.4	1.3	i	-12.7
COc1ccc(-c2noc(CSc3nc4ccccc4c(=O)n3-c3ccc(C)cc3)n2)cc1	1.6	-3.6	11.5	-0.3	-0.7	14.3	-28.8	-1.8	i	37.4
COc1ccccc1N1CCN(C(=O)COc2cccc(C)c2C)CC1	-0.8	-18.1	-13.1	12.7	10.0	-15.9	.	3.1	i	3.8
Cc1cccc(OCC(=O)N2CCN(c3nnc(-c4ccccc4)c4ccccc34)CC2)c1	3.6	-42.7*	-23.9*	-9.6*	8.2	.	-2.8	1.8	i	28.6
CNC(=O)COC(=O)c1cc(-c2ccco2)nc2ccccc12	-4.3	5.5	5.7	2.2	10.3	-0.2	10.4	-2.5	i	0.4
COc1ccc(CC(=O)Nn2c(-c3ccccc3)nc3ccccc3c2=O)cc1	.	.	.	.	-25.3	-0.6	2.6	-1.9	.	6.7
COC(=O)C1=C(C(=O)OC)[C@@H]2N(C)c3ccccc3[C@@]23C[C@@H](CO)N(C(=O)c2cccs2)C3=N1	3.7	2.7	13.4	-4.4	11.4	-8.6	34.9	2.4	i	3.9
COC(=O)C1=C(C)NC(=O)NC1C1CC=CCC1 (centres undefined)	.	.	.	.	-8.0	.	-0.1	-4.6	.	-4.4
O=S1(=O)CCOC[C@H](CC2CCCCC2)N1Cc1ccccc1Br	-0.7	-24.0	-36.1	5.8	-3.5	-2.4	.	-3.8	i	17.6
CCOc1ccc(-n2cc(C(=O)NCc3ccco3)c3cc(OC)c(OC)cc3c2=O)cc1	.	.	.	.	8.7	5.9	-5.9	4.4	.	6.4
CCCCCNc1nc(N2CCCC2)c2c(c1C#N)CCN(C)C2	.	.	.	.	2.8	17.7	6.5	?	.	51.7
Cc1noc(NS(=O)(=O)c2ccc(NC(=O)CC34CC5CC(CC(Br)(C5)C3)C4)cc2)c1C	.	.	.	.	-2.9	4.0	74.1	2.8	.	-10.2
Cc1cc(=O)[nH]c2c1c(=O)[nH]n2C1CC(C)N(C)CC1C (centres undefined)	.	.	.	.	0.2	-1.3	-19.3	-0.1	.	-8.2
Cc1noc(C)c1C(=O)OCC(=O)Nc1ccc(C(N)=O)cc1	0.4	0.3	-1.2	-5.6	?	-10.2	-2.4	-4.3	i	-9.1
Cc1ccc(S(=O)(=O)NCC(=O)N(CC(=O)NCC2CCCO2)Cc2ccc(Cl)cc2)cc1 (centres undefined)	-8.4	1.4	9.2	2.0	-5.4	-0.8	-2.0	-0.1	i	-7.3
CC(C)Oc1ccc(C2CC(=O)NC3=C2C(=O)CCC3)cc1 (centres undefined)	.	.	.	.	-1.7	0.5	-2.7	1.4	.	12.5
Cc1ccc(CNC(=O)CCSCc2ccccc2C)cc1	-2.0	-0.3	-29.1	-6.6	12.2	-1.9	-1.0	0.2	i	-7.7
CCN1C(=S)N[C@@H](c2cccs2)C(C(=O)OC)=C1C	-15.3	-54.8	-78.0	-29.9	-0.3	0.0	2.0	3.5	i	-18.8
CCN(CC)C(=S)Nc1ccc2nc3n(c(=O)c2c1)CCCCC3	-2.9	5.0	-0.3	-1.1	-15.4	-1.5	31.7	.	i	.
CCCCOc1nc2ccccc2nc1C(C#N)C(=O)NC1CCCCC1 (centres undefined)	.	.	.	.	8.2	13.1	18.1	4.0	.	19.9
CS(=O)(=O)c1[nH]nc(-c2ccccc2Cl)c1C#N	-1.7	-6.7	-9.1	1.2	-16.5	3.7	2.7	-2.8	i	.
CCOC(=O)c1c(NC(C)=O)sc2c1C1CCN2CC1	.	.	.	.	-4.9	-14.5	5.6	-2.5	.	-12.9
COCCCn1c(=N)c(C(=O)NCC2CCCO2)cc2c(=O)n3ccccc3nc21 (centres undefined)	.	.	.	.	-4.4	1.7	.	172.4*	.	-3.2
CCOc1ccccc1NC(=O)CN1C(=O)C(C)SC(C)C1=O (centres undefined)	-0.2	-4.3	-2.6	-2.8	8.7	-7.0	.	0.0	i	-3.3
CC(=NCCCn1ccnc1)c1c(O)n(Cc2ccccc2)c(=O)[nH]c1=O	.	.	.	.	-1.3	-2.0	-3.3	0.5	.	-23.1
Cc1ccc(S(=O)(=O)N2CCOCC2)cc1NC(=O)CSc1nnnn1C1CCCC1	-2.4	-1.3	1.0	-0.2	.	4.4	-1.6	.	i	.
O=[N+]([O-])c1ccc(S(=O)(=O)NCCc2cn3ccccc3n2)cc1	4.8	0.1	23.6	-4.2	-2.4	0.8	-14.1	3.5	i	-2.0
O=C(COC(=O)c1n[nH]c2ccccc12)Nc1ccc([N+](=O)[O-])cc1	.	.	.	.	-1.2	-1.4	-19.9	1.2	.	1.3
CC(=O)Nc1ccc(C(=O)NNC(=O)c2ccc(Cl)cc2Cl)cc1	-1.3	10.5	5.0	-5.0	-3.5	.	-0.6	1.6	i	-9.2
COc1ccc(C(=O)NCC(=O)OCC(=O)NCc2ccco2)cc1	-2.4	9.1	19.4	1.7	.	-3.9	.	.	i	.
Oc1ccc(C2C(c3ccccc3)=NN=C(c3ccccc3F)N2O)c(O)c1 (centres undefined)	.	.	.	.	24.2	0.8	28.2	-1.2	.	24.2
Cc1n[nH]c(C)c1CCC(=O)N/N=C/c1cccc([N+](=O)[O-])c1	0.3	1.8	0.8	-3.4	-5.7	-5.9	1.7	1.3	.	2.5
OC(COc1cccc2ccccc12)CN1CCCC1 (centres undefined)	.	.	.	.	27.4	-1.8	-17.4	-1.9	.	14.3
CCC1(C)Cc2ccccc2-c2nc(-c3ccccc3)oc(=O)c21 (centres undefined)	.	.	.	.	1.8	9.1	-3.6	?	.	9.9
O=C(NCCCN1CCCC1=O)Nc1ccc(F)c(Cl)c1	.	.	.	.	-8.4	-4.4	-23.5	1.5	.	1.3
Cc1ccc(C(=O)NC(C(=O)NC2CCCC2)c2ccccc2)cc1 (centres undefined)	-29.0	3.6	11.4	-2.2	-9.9	-1.6	-3.1	0.8	i	6.7
O=C(Oc1ccccc1)N1CCN(c2ccccc2F)CC1	0.6	1.2	3.0	2.0	-1.9	4.5	-4.8	7.3	i	-1.7
COC(=O)C(Cc1ccc(O)cc1)NC(=O)c1ccccc1 (centres undefined)	.	.	.	.	1.2	5.4	29.1	5.0	.	-2.8

These rows are one share of the data; the hit share may differ from the screen's.
